Bioassay records: PubChem BioAssay, Fisher Drug Discovery Resource Center
NPYLR7 ag – activates Aedes aegypti NPYLR7 receptor. HEK293T NPYLR7/Galpha15, GCaMP6s calcium fluorescence. activation, % at 10 µM. 270,000 tested, 0.15% active. AID 1259423; in the data active = activation above about 40%;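 also: 0% = vehicle and 100% = reference agonist at the receptor; some compounds past the cut are filed as inactive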
NPYLR7 ag max-min – recorded beside NPYLR7 ag, whose call it bears; activation, %; measured here: Max-Min RFU normalised activation; some inactives read as strong as hits;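 span of the calcium signal over five minutes; 0% = vehicle and 100% = native peptide agonist; compound fluorescence can raise it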
* = called active by the depositor; & = joins results of further samples.

What do the screens show for `O=C(c1cc2n(n1)CCCN(c1ccncc1F)C2)N1CCOCC1`?
NPYLR7 ag: 4; NPYLR7 ag max-min: 1

What do the screens show for `Clc1cc(Cl)cc(-c2ncccn2)c1`?
NPYLR7 ag: 5; NPYLR7 ag max-min: -4

What do the screens show for `CN(C)Cc1ccccc1Cn1cnc(-c2ccccc2)c1-c1cnc[nH]1`?
NPYLR7 ag: 15; NPYLR7 ag max-min: 13

Results for O=C(CN1C(=O)/C(=C/c2ccccc2)SC1=S)NNC(=O)c1ccncc1 ?
NPYLR7 ag: -1; NPYLR7 ag max-min: -6

Results for CCOC(=NCCCN(C)C)NC(=O)c1ccco1 ?
NPYLR7 ag: 21; NPYLR7 ag max-min: 13

What do the screens show for `O=C(CN1C(=O)NC2(CCCCCC2)C1=O)NC1CCCCCC1`?
NPYLR7 ag: 2; NPYLR7 ag max-min: 6

What do the screens show for `On1c(-c2ccc(F)cc2)nc2c1CCc1nonc1-2`?
NPYLR7 ag: 2; NPYLR7 ag max-min: 18

What do the screens show for `O=C(Nc1ccc(C2SCC(=O)N2c2ccc(C(F)(F)F)cc2)cc1)C1CCCCC1` (configuration not stated)?
NPYLR7 ag: -12; NPYLR7 ag max-min: 2

How did Cc1c(C(=O)NCc2ccc(C(F)(F)F)cc2)sc(=O)n1CCN1CCCC1 do in these assays?
NPYLR7 ag: -1; NPYLR7 ag max-min: -4

Results for O=C(CCN(Cc1ccco1)c1nc(C2CC2)nc2ccccc12)N1CCOCC1 ?
NPYLR7 ag: -2; NPYLR7 ag max-min: 11

Results for COc1ccc(C(CC(=O)N2CCCCC2)c2c[nH]c3ccccc23)cc1OC (configuration not stated) ?
NPYLR7 ag: 3; NPYLR7 ag max-min: 15

Results for CCN(Cc1ccccc1)Cc1nc(N2CCOCC2)c2cc(Cl)ccc2n1 ?
NPYLR7 ag: 7; NPYLR7 ag max-min: -1

Results for COc1cc(OC)c(OC)cc1CN1CCN(Cc2cc(OC)c(OC)c(OC)c2)CC1 ?
NPYLR7 ag: 4; NPYLR7 ag max-min: 3

Results for CC(C)Cc1nnc(C(C)NC(C)c2ccc3c(c2)OCO3)o1 (configuration not stated) ?
NPYLR7 ag: 10; NPYLR7 ag max-min: 6

What do the screens show for `O=C(NC1CCC1)c1ccc(-c2cc(-c3cccc(C(F)(F)F)c3)n[nH]2)cc1`?
NPYLR7 ag: 6; NPYLR7 ag max-min: -2

What do the screens show for `Cc1ccc(C2CCCN2C(=O)C2(C)CC2(Cl)Cl)s1` (configuration not stated)?
NPYLR7 ag: 1; NPYLR7 ag max-min: 0

How did Cc1nc2c(=O)n(CC(=O)N(c3ccccc3)c3ccccc3)nc(-c3ccco3)c2s1 do in these assays?
NPYLR7 ag: 1; NPYLR7 ag max-min: 0

What do the screens show for `CCCCN(C)C1=Nc2cccc3cccc1c23`?
NPYLR7 ag: 16; NPYLR7 ag max-min: 12

How did COc1ccc(N2C(=O)CSC2c2ccc(NC(=O)c3cccc(Br)c3)cc2)c(OC)c1 (configuration not stated) do in these assays?
NPYLR7 ag: 3; NPYLR7 ag max-min: 12

Results for CCc1nc(N(CCC(=O)N2CCN(CC)CC2)Cc2ccccc2)c2ccc(Cl)cc2n1 ?
NPYLR7 ag: 5; NPYLR7 ag max-min: 9

Results for CC(Sc1n[nH]c(-c2cccs2)n1)c1ccc(F)cc1 (configuration not stated) ?
NPYLR7 ag: -2; NPYLR7 ag max-min: -4

What do the screens show for `Cc1nc(-c2ccccc2)nc(N2CCN(C(=O)c3ccc(F)cc3)CC2)c1Cc1ccccc1F`?
NPYLR7 ag: 24; NPYLR7 ag max-min: 15

What do the screens show for `CC(C)[C@H]1CC[C@H](C)C[C@@H]1OCC(=O)N1CCN(c2ccc3[nH]c(=O)[nH]c3c2)CC1`?
NPYLR7 ag: -7; NPYLR7 ag max-min: -14

How did O=C(Cn1cnc2scc(-c3ccc(F)cc3)c2c1=O)N1CCCCC1 do in these assays?
NPYLR7 ag: 6; NPYLR7 ag max-min: 0

How did CCn1c(=O)n(CC(=O)Nc2cccc(S(=O)(=O)N3CCOCC3)c2)c2ccccc21 do in these assays?
NPYLR7 ag: 5; NPYLR7 ag max-min: 2

What do the screens show for `CC(C)(C)CC(C)(C)Nc1c(-c2ccc3c(c2)OCO3)nc2ccc(Br)cn12`?
NPYLR7 ag: 1&13; NPYLR7 ag max-min: 4&19

What do the screens show for `O=C(CN1Cc2ccccc2C1)NC1(c2ccc(Cl)cc2)CC1`?
NPYLR7 ag: -20; NPYLR7 ag max-min: -21

How did Cc1nn(-c2ccc(F)cc2)c(C)c1CNC(C)c1cnn(-c2cccc(F)c2)c1C (configuration not stated) do in these assays?
NPYLR7 ag: 20; NPYLR7 ag max-min: 4

What do the screens show for `Cc1ccn(-c2ccc(N3CCCC(CN4CCOCC4)C3)nn2)n1` (configuration not stated)?
NPYLR7 ag: 4; NPYLR7 ag max-min: -23

How did O=C(Nc1ccccc1N1CCCC1=O)C1CCN(C(=O)c2ccncc2)CC1 do in these assays?
NPYLR7 ag: 4; NPYLR7 ag max-min: 2

Next section, overlapping the part above by 2 compounds.
What do the screens show for `Cc1ccn(-c2ccc(N3CCCC(CN4CCOCC4)C3)nn2)n1` (configuration not stated)?
NPYLR7 ag: 4; NPYLR7 ag max-min: -23

How did O=C(Nc1ccccc1N1CCCC1=O)C1CCN(C(=O)c2ccncc2)CC1 do in these assays?
NPYLR7 ag: 4; NPYLR7 ag max-min: 2

What do the screens show for `Cc1c(C(=O)NCc2ccc(F)cc2)sc(=O)n1Cc1ccc2c(c1)OCO2`?
NPYLR7 ag: 14; NPYLR7 ag max-min: 3

What do the screens show for `OC(c1cc(F)c(F)c(F)c1)c1nnc(N2CCCCC2)s1` (configuration not stated)?
NPYLR7 ag: 10; NPYLR7 ag max-min: 8

Results for NS(=O)(=O)CC1CCCN(Cc2nc3ccccc3s2)C1 (configuration not stated) ?
NPYLR7 ag: 0; NPYLR7 ag max-min: 0

What do the screens show for `CCc1cnc2c(c1OC)c(=O)n(CC(=O)NC1CCCC1)c(=O)n2C`?
NPYLR7 ag: 0; NPYLR7 ag max-min: -1

Results for COC(=O)C1CCN(C(c2cc(OC)c(OC)c(OC)c2)C2Sc3ncnn3C2=O)CC1 (configuration not stated) ?
NPYLR7 ag: 3; NPYLR7 ag max-min: 2

How did COc1cccc(C(=O)N2CCN(C(C(=O)Nc3ccc4c(c3)OCO4)C3CCCC3)CC2)c1 (configuration not stated) do in these assays?
NPYLR7 ag: 14; NPYLR7 ag max-min: 14

What do the screens show for `COc1ccc(C(=O)N(Cc2cccnc2)c2nc3c(C)cc(Cl)cc3s2)cc1OC`?
NPYLR7 ag: -1; NPYLR7 ag max-min: -1

How did CCN(Cc1noc(CC(C)C)n1)C(=O)CC1CNCCO1 (configuration not stated) do in these assays?
NPYLR7 ag: 2; NPYLR7 ag max-min: 0

How did COc1ccc(-n2ncc(Oc3ccc4c(c3)CCC4)c(Nc3cccc(C(=O)N4CCCCC4)c3)c2=O)cc1 do in these assays?
NPYLR7 ag: 12; NPYLR7 ag max-min: 13

Results for CC1=C(c2nc(-c3ccc(C)cc3)no2)C(c2ccco2)NC(=S)N1 (configuration not stated) ?
NPYLR7 ag: 0; NPYLR7 ag max-min: -2

Results for COc1ccc(C)cc1NC(=O)CCn1ncc(=O)c2ccccc21 ?
NPYLR7 ag: -1; NPYLR7 ag max-min: -1

Results for Cc1c(Sc2nnc(C(C)C)n2C2CC2)c(=O)[nH]c2ccccc12 ?
NPYLR7 ag: -2; NPYLR7 ag max-min: -5

How did Cc1cccc(S(=O)(=O)Nc2cc(S(=O)(=O)NC3CC3)c(Cl)cc2F)c1 do in these assays?
NPYLR7 ag: -5; NPYLR7 ag max-min: -6

Results for CC(=O)N1CC(=O)N=C1SCC(=O)Nc1nc2c(s1)CCCC2 ?
NPYLR7 ag: -5; NPYLR7 ag max-min: -6

Results for COCCOC(=O)C1=C(C)NC2=C(C(=O)CC(c3ccccc3)C2)C1c1cc(OC)ccc1OC (configuration not stated) ?
NPYLR7 ag: 11; NPYLR7 ag max-min: 12

Results for CCOC(=O)Cn1c(O)c(N=NC(=O)CNC(=O)/C=C/c2ccco2)c2ccccc21 ?
NPYLR7 ag: 10; NPYLR7 ag max-min: 14

How did Cc1ccsc1-c1nc(CN2CCc3nnc(C(C)C)n3CC2)c(C)o1 do in these assays?
NPYLR7 ag: -4; NPYLR7 ag max-min: -6

What do the screens show for `O=C(CCCSc1ccc(NC(=O)c2ccco2)nn1)Nc1cnc2ccccc2c1`?
NPYLR7 ag: -2; NPYLR7 ag max-min: -2

Results for Cc1noc(C)c1S(=O)(=O)NC1CCSc2ccccc21 (configuration not stated) ?
NPYLR7 ag: 8; NPYLR7 ag max-min: 16

Results for CCNC(=O)N(C)[C@@H]1[C@@H](O)C[C@@H]2C[C@H](c3ccccn3)OC[C@@]21O ?
NPYLR7 ag: -2; NPYLR7 ag max-min: 6

Results for C=Cn1cc(C(=O)N(C)CCN2CCCCC2C)cn1 (configuration not stated) ?
NPYLR7 ag: -4; NPYLR7 ag max-min: -7

What do the screens show for `COCCNCc1cn[nH]c1-c1cccs1`?
NPYLR7 ag: 9; NPYLR7 ag max-min: 8

How did CCc1c(C)nc2c(-c3ccccc3)c(C)nn2c1N1CCC(C)CC1 do in these assays?
NPYLR7 ag: -1; NPYLR7 ag max-min: 20

How did COCCN(CCC(=O)N1CCN(C(c2ccccc2)c2ccccc2)CC1)c1nc(Cc2cccc(OC)c2)ns1 do in these assays?
NPYLR7 ag: 14; NPYLR7 ag max-min: 18

Results for COc1ccc(NCN2C(=O)C3C4C=CC(C4)C3C2=O)cc1 (configuration not stated) ?
NPYLR7 ag: 0; NPYLR7 ag max-min: -2

How did COc1cc2c(cc1CN1CCC(N)(C(=O)O)C1)OCCCO2 (configuration not stated) do in these assays?
NPYLR7 ag: -6; NPYLR7 ag max-min: -7

What do the screens show for `COc1ncccc1-c1ccccc1CN1CCNCC1`?
NPYLR7 ag: 11; NPYLR7 ag max-min: 3

How did CCOc1ccc(C(N)c2cccc(Cl)c2)cc1 (configuration not stated) do in these assays?
NPYLR7 ag: 0; NPYLR7 ag max-min: -2

Results for COc1cccc2c1NC1CC(C)CCC1C2(C)C (configuration not stated) ?
NPYLR7 ag: -4; NPYLR7 ag max-min: -6

How did C=CCN1C(=O)C2(Nc3cc(Cl)ccc3C(=O)N2CC)c2ccccc21 (configuration not stated) do in these assays?
NPYLR7 ag: 7; NPYLR7 ag max-min: 4

How did CCn1c(C)cn2c3c(=O)n(Cc4ccc(Br)cc4)c(=O)n(C)c3nc12 do in these assays?
NPYLR7 ag: -6; NPYLR7 ag max-min: -8

Results for Cc1cccc(Cl)c1C(=O)N1CCOC(COc2ccc3c(c2)CCCC3)C1 (configuration not stated) ?
NPYLR7 ag: 3; NPYLR7 ag max-min: 0

What do the screens show for `CCC(CC)C(=O)N(CCN(C)C)Cc1cc(NC(=O)NC(C)C)ccc1N(C)C`?
NPYLR7 ag: -3; NPYLR7 ag max-min: 2

What do the screens show for `CCOc1ncccc1C(=O)N1CCN(c2ccc(F)cc2)CC1`?
NPYLR7 ag: 2; NPYLR7 ag max-min: 2

How did FC(F)(F)c1ccc(NCc2csc(-c3ccco3)n2)cc1 do in these assays?
NPYLR7 ag: 3; NPYLR7 ag max-min: -6

Results for COc1cc(C(=O)NC2CCCNC2)cc(OC)c1OC (configuration not stated) ?
NPYLR7 ag: -13; NPYLR7 ag max-min: -17

Results for CCCCN(CCC(=O)NCc1ccc(F)cc1)c1nc(Cc2ccc(C)cc2)ns1 ?
NPYLR7 ag: -1; NPYLR7 ag max-min: -4

Results for Cc1cc(Br)ccc1C(=O)NCCC(=O)N(C)C ?
NPYLR7 ag: 2; NPYLR7 ag max-min: -1

By substructure: those above containing a Cl atom.
What do the screens show for `Clc1cc(Cl)cc(-c2ncccn2)c1`?
NPYLR7 ag: 5; NPYLR7 ag max-min: -4

Results for CCN(Cc1ccccc1)Cc1nc(N2CCOCC2)c2cc(Cl)ccc2n1 ?
NPYLR7 ag: 7; NPYLR7 ag max-min: -1

What do the screens show for `Cc1ccc(C2CCCN2C(=O)C2(C)CC2(Cl)Cl)s1` (configuration not stated)?
NPYLR7 ag: 1; NPYLR7 ag max-min: 0

Results for CCc1nc(N(CCC(=O)N2CCN(CC)CC2)Cc2ccccc2)c2ccc(Cl)cc2n1 ?
NPYLR7 ag: 5; NPYLR7 ag max-min: 9

What do the screens show for `O=C(CN1Cc2ccccc2C1)NC1(c2ccc(Cl)cc2)CC1`?
NPYLR7 ag: -20; NPYLR7 ag max-min: -21

What do the screens show for `COc1ccc(C(=O)N(Cc2cccnc2)c2nc3c(C)cc(Cl)cc3s2)cc1OC`?
NPYLR7 ag: -1; NPYLR7 ag max-min: -1

How did Cc1cccc(S(=O)(=O)Nc2cc(S(=O)(=O)NC3CC3)c(Cl)cc2F)c1 do in these assays?
NPYLR7 ag: -5; NPYLR7 ag max-min: -6

How did CCOc1ccc(C(N)c2cccc(Cl)c2)cc1 (configuration not stated) do in these assays?
NPYLR7 ag: 0; NPYLR7 ag max-min: -2

How did C=CCN1C(=O)C2(Nc3cc(Cl)ccc3C(=O)N2CC)c2ccccc21 (configuration not stated) do in these assays?
NPYLR7 ag: 7; NPYLR7 ag max-min: 4

Results for Cc1cccc(Cl)c1C(=O)N1CCOC(COc2ccc3c(c2)CCCC3)C1 (configuration not stated) ?
NPYLR7 ag: 3; NPYLR7 ag max-min: 0

The list is partial; rates above refer to the full screens.
